Compound activity (PubChem BioAssay)
Arbovirus inh: arbovirus infection inhibition; 200,000 tested, 0.37% active; arbovirus infection cell-based antiviral screen; inhibition, % at 10 µM;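 active = inhibition from about 30%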;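 note: bluetongue infection of BSR cells; cell survival read as ATP light after 72 h; 0% = infected wells without compound and 100% = uninfected wells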
Mtb growth: M. tuberculosis H37Rv growth inhibitors, H37Rv strain (AID 1626); M. tuberculosis H37Rv growth inhibition; higher % means a stronger effect; one-dose inhibition, % at 10 µM; IC50 in µM for titrated hits; 220,000 tested, 0.95% active;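 active = confirmed in a dose series; inconclusive = inhibition above 80% but not taken into the dose series; inactive = below 80% or under 30% at every dose of the series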;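 note: bacteria incubated seven days before Alamar blue readout; 0% = bacteria only wells and 100% = bacteria with antibiotic wells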
Mtb betalactam: beta-lactam sensitization of Mtb H37Rv. M. tuberculosis H37Rv growth with meropenem, percent inhibition; hits of this screen are not shown here. 330,000 tested, 0.27% active. AID 434955. inhibition, % at 25 µM;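 active = about 74% or more and at least 40 points above the plate without the antibiotic, then above 30% in a dose series; inconclusive = first-round hits that could not be retested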;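 note: growth measured after seven days incubation then overnight dye step; 0% = bacteria only wells and 100% = bacteria with antibiotic; twin plates without the antibiotic show which effects depend on it; some results filed as inactive read as strong as hits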
RecA splice inh: inhibitors of M. tuberculosis RecA intein splicing. P9WHJ3. cell-free RecA intein splicing, fluorescence. inhibition, %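 (about 9 µM by stock and volumes)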. 290,000 tested, 0.75% active; in the data active = inhibition above about 30%; inconclusive = no clear call, values can overlap the other calls;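 note: 0% = vehicle wells and 100% = reference inhibitor control wells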
Target sequence (P9WHJ3 whole entry, looked up, canonical isoform): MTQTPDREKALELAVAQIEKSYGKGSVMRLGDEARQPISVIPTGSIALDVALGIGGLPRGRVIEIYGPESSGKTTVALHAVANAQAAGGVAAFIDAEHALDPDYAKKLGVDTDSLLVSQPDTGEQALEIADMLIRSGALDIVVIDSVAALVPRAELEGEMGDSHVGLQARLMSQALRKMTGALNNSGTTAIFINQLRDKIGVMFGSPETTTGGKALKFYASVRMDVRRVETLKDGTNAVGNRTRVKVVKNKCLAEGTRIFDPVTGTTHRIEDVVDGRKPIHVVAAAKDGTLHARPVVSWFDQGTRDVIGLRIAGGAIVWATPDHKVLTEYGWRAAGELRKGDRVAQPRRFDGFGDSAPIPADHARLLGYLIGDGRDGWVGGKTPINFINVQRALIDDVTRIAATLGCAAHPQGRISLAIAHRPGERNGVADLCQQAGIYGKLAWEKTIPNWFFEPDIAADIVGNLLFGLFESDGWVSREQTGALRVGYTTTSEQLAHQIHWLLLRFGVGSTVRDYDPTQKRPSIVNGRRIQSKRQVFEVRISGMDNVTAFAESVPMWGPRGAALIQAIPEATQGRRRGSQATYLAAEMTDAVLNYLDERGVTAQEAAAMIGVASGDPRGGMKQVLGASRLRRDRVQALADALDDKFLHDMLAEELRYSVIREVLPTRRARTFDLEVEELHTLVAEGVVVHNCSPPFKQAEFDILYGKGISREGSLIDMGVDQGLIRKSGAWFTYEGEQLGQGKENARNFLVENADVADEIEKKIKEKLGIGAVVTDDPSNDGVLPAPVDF
YopH inh: blocks Yersinia enterocolitica YopH tyrosine phosphatase | fluorescence Ex485/Em525 | 140,000 tested, 0.16% active | inhibition, %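 (about 10 µM by stock and volumes)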;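 active = inhibition of 50% or more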;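 note: controls were vehicle for no effect and minimum signal wells for full effect; inactives centre near -20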
Arbovirus inh repeat: further read-out of Arbovirus inh, marked with its call; inhibition, %; measured here: 10K subset replicate screen; many hits read low in the repeat;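 first of two repeat runs on a subset; 0% = infected and 100% = uninfected wells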
* = called active by the depositor; ? = inconclusive; nt = no result given.

SMILES	Arbovirus inh	Mtb growth	Mtb betalactam	RecA splice inh	YopH inh	others
O=C(N/N=C/c1cn(-c2ccccc2)nc1-c1ccc(F)cc1)c1ccc(Br)o1	-10	-6%	54	-0.1	-19
COc1ccc(OCCCC(=O)Nc2ccc(N3CCCCC3)cc2)cc1	-1	-2%	12	-3.1	-15
O=C(COC(=O)/C=C/c1ccccc1Cl)NC1CCCCCC1	9	-5%	3	nt	nt
Cc1cccc(CN2CCC(CNC(=O)Nc3ccc(F)c(Cl)c3)CC2)c1	nt	nt	-4	-28	nt
O=C(Nc1ccccc1C(=O)Nc1ccccn1)c1ccc([N+](=O)[O-])cc1	-2	3%	-8	-1.3	nt
COc1ccc2oc(=O)c(C(=O)Nc3ccccc3C)cc2c1	nt	nt	5	-5.0	nt
O=C(Nc1cc(F)cc(F)c1)c1sc(Cl)nc1-c1ccccc1	2	8%	2	1.2	-16
CCOC(=O)C1CCCN(C(=O)c2cc(Nc3ccc(OC)cc3)nc3ccccc23)C1 (centres undefined)	4	1%	3	0.3	0
COCC(C)n1c(SCC(=O)NNC(=O)c2ccc(F)cc2)nc2ccccc2c1=O (centres undefined)	5	-6%	0	-0.5	-16
COc1cc(Cl)c(S(=O)(=O)N2CC(C)OC(C)C2)cc1Cl (centres undefined)	3	-1%	-5	3.8	-21
CCCCC1(CC)C(=O)NC(=O)NC1=Nc1ccc(OC)cc1 (centres undefined)	7	-7%	3	-1.6	-34
CC(C)c1nc2scc(-c3ccc(Cl)cc3)c2c(=O)n1N	nt	6%	96	8.9	nt
COc1cc(CC(=O)OCC(=O)NCC(C)C)cc(OC)c1OC	-1	6%	-6	nt	nt
Cc1ccc(NC2=NCC(=O)N2C2CCCC2)cc1C	-5	-11%	-1	nt	nt
O=C1CC2(CCN(C(=O)c3ccc(Cl)cc3)CC2)Oc2ccccc21	nt	nt	-11	1.5	nt
COc1ccccc1C(=O)NC(=O)Nc1cccc(Cl)c1	nt	nt	2	0.5	nt
COc1ccc(-n2c(=O)cc(N3CCCCCC3)[nH]c2=O)cc1	-3	-2%	-3	0.1	2
CNC(=S)N1N=C(c2ccc(OC)cc2)CC1c1ccc(Cl)cc1Cl (centres undefined)	0	40%	1	4.4	nt
O=C(CNS(=O)(=O)c1ccc(F)cc1)N1CCCCCC1	-4	nt	-1	6.2	nt
COc1ccc(C(CC(=O)O)NC(=O)COc2ccccc2)cc1OC (centres undefined)	0	-4%	5	-2.0	-8
CSc1nnc(C)c(/C=C/Nc2ccc(Cl)cc2)n1	-9	3%	nt	-5.8	-22
C=CCNCc1ccc(C(=O)NCCCCCCC)cc1[N+](=O)[O-]	nt	nt	-10	-2.6	nt
NC(=O)c1ccc(N=Nc2c(-c3ccccc3)[nH]n(-c3ccccc3)c2=O)cc1	-18	8%	1	0.8	nt
CC(=O)N1c2ccc(S(=O)(=O)N(C)CC(=O)Nc3ccccc3C)cc2CC1C (centres undefined)	nt	nt	-9	0.2	nt
O=[N+]([O-])c1ccc(S(=O)(=O)Nc2ncccn2)cc1	nt	nt	-6	-0.4	nt
SMILES	Arbovirus inh	Mtb growth	Mtb betalactam	RecA splice inh	YopH inh	others
c1ccc(SCc2cn3cccnc3n2)nc1	7	3%	12	-5.5	nt
Cc1ccc(C(=O)Sc2cccccc2=O)cc1	nt	nt	101	1.4	nt
O=S(=O)(c1ccc(F)cc1)c1snnc1-c1ccccc1	-9	0%	72	69*	nt
Cc1nn(C)cc1S(=O)(=O)N1CCCCC1C (centres undefined)	nt	nt	-4	-2.3	nt
O=S(=O)(Nc1cccnc1)c1cc(Cl)ccc1Cl	6	-9%	5	0.8	-32
Cc1cc(C)cc(-n2nnc(C(=O)NCc3ccco3)c2N)c1	8	-12%	-1	2.8	-33
CSc1nc(N)n(-c2cc(C(F)(F)F)ccn2)n1	nt	10%	-5	1.3	nt
COC(=O)Cn1cnc2c(nnn2-c2ccc(OC)cc2)c1=O	nt	nt	-5	1.0	nt
CCOc1ccc(CC(=O)NCCc2cnc[nH]2)cc1	nt	nt	0	-1.4	nt
O=[N+]([O-])c1ccc2c(c1)C(N1CCOCC1)/C(=C/COc1ccc(Cl)cc1Cl)O2 (centres undefined)	3	12%	9	11	-9
Cc1cc(C)c(C(=O)/C=C/C=C/c2ccccc2)c(=O)[nH]1	1	1%	7	-8.9	-11
CCOc1ccc2nc(SCC(=O)Nc3cccc(S(=O)(=O)NC4=NCCCCC4)c3)[nH]c2c1	5	4%	7	1.9	nt
Cc1ccc(-n2c(SCC(=O)N/N=C/c3ccccc3C(=O)O)nnc2-c2ccc(Cl)cc2)cc1	nt	-7%	-9	-0.7	nt
Cc1cc(=O)oc(C)c1C(=O)NCCN(C)Cc1ccccc1	1	1%	-17	-0.1	nt
CS(=O)(=O)N1CCC(C(=O)N2CCC(Cc3ccccc3)CC2)CC1	-1	-1%	1	-1.8	-25
O=C(CCc1ccccc1)Nc1ccc(N2CCCCC2)cc1	-2	0%	3	-1.6	-25
COc1ccc(CNC(=O)COC(=O)c2cncc(Br)c2)cc1	9	-4%	-4	0.8	nt
COC(=O)[C@@H](NC(=O)CCc1nnc(-c2ccsc2)o1)C(C)C	3	-9%	16	5.6	nt
Cc1cc(NC(=O)CSc2nc3ccccc3cc2C#N)no1	nt	nt	7	1.0	nt
Cc1c(C(=O)N2CCCCC2)c(S(=O)(=O)NCCc2ccc(Cl)cc2)c(C)n1C	nt	nt	9	0.5	nt
Cc1cc(=O)oc(C)c1C(=O)N1CCN(C(c2ccccc2)c2ccccc2)CC1	-2	-1%	-30	1.8	-11
COc1ccc(/C=N/n2c(SC)nnc(C(C)(C)C)c2=O)c(OC)c1	-5	9%	5	1.3	-12
COC(=O)C(C)NC(=O)CNS(=O)(=O)c1ccc(F)cc1 (centres undefined)	4	3%	3	3.9	nt
O=C(C1CC(=O)N(C2CCCCC2)C1)N1CCc2ccccc21 (centres undefined)	0	-4%	5	2.2	nt
CCOC(=O)c1sc(=S)n(C)c1N	-10	-5%	-14	-0.4	-40

By substructure: those above containing two or more sulfur atoms.
SMILES	Arbovirus inh	Mtb growth	Mtb betalactam	RecA splice inh	YopH inh	others
O=S(=O)(c1ccc(F)cc1)c1snnc1-c1ccccc1	-9	0%	72	69*	nt
CCOc1ccc2nc(SCC(=O)Nc3cccc(S(=O)(=O)NC4=NCCCCC4)c3)[nH]c2c1	5	4%	7	1.9	nt
CCOC(=O)c1sc(=S)n(C)c1N	-10	-5%	-14	-0.4	-40

Next section.
SMILES	Arbovirus inh	Mtb growth	Mtb betalactam	RecA splice inh	YopH inh	others
COc1ccc(C(=O)O)cc1Nc1cc(C)nc2ncnn12	3	2%	-4	-2.5	-43	Arbovirus inh repeat=7
CCCNC(=O)NC(=O)COc1ccc2oc3ccccc3c2c1	1	?	95	0.2	6
COc1ccccc1N1CCN(Cc2nc(N)nc(Nc3ccc(C)cc3)n2)CC1	9	49%	88	-4.6	7
CN(CCCC(=O)O)S(=O)(=O)c1ccc2c(c1)C(=O)c1cc(S(=O)(=O)N(C)CCCC(=O)O)ccc1-2	nt	nt	-1	-3.6	nt
COc1cc2c(cc1OC)CC[N+](C)=C2	1	-6%	-3	-42	nt
Cc1nn2cc(-c3cccc(Cl)c3)cnc2c1Br	-17	1%	-5	2.2	nt
COc1nsnc1N1CCOCC1	-3	0%	-9	0.0	nt
COc1cccc(C(=O)N2CCC(n3nccc3NC(=O)C3CCOC3)CC2)c1 (centres undefined)	nt	nt	-7	-2.2	nt
C/C(=C\C(=O)c1sccc1Cl)N(C)C	1	0%	-5	nt	nt
O=C(CCC(=O)c1cccs1)Nc1ncccc1O	nt	nt	-2	-1.2	nt
NC(=O)c1cc([N+](=O)[O-])ccc1NCCN1C(=O)c2ccc(C(=O)O)cc2C1=O	7	6%	-3	2.0	nt
Clc1ccc(-c2c(C3=NCCCN3)nnn2-c2ccc(Cl)cc2)cc1	nt	3%	0	0.5	nt
COc1ccc(C(=O)CC(=O)C(=O)Nc2ccc([N+](=O)[O-])cc2C)cc1	nt	nt	85	-8.7	nt
O=C(CSc1cc(Cl)ccc1Cl)NCCCn1ccnc1	nt	nt	-4	-11	nt
CCOC(=O)Cc1cc(=O)n2[nH]c(C(C)(C)C)cc2n1	nt	3%	0	1.4	nt
CCC(C)N1CC(C(=O)NC2CCCCC2)CC1=O (centres undefined)	3	-14%	-9	0.1	-21
COc1ccccc1-c1nnc(-c2ccc(F)cc2)o1	nt	nt	6	-3.8	nt
Cc1ccc(CC(=O)Nc2cccc(C)n2)cc1	-5	17%	-4	1.6	-92
COc1cc(OC)cc(C(=O)NCCCNC(=O)c2cccnc2)c1	nt	nt	-5	1.9	nt
CCOC(=O)c1c(C)oc2c1c1c(c3ccccc32)OCN(Cc2ccccn2)C1	-6	5%	81	1.4	-20
Cc1ccc(NC(=O)CN(C)CC(=O)Nc2c(C)cccc2C)c(Br)c1	3	-4%	-5	2.7	-17
CCOC(=O)C1CCN(C(c2cccc(OC)c2)c2sc3nc(C)nn3c2O)CC1 (centres undefined)	-2	-1%	-4	-5.6	-27	Arbovirus inh repeat=5
CSc1ccc(/C=C(/NC(=O)c2ccco2)C(=O)N2CCCCC2)cc1	nt	nt	3	1.2	nt
CCCCNC(=S)NNC(=O)c1csc(C)c1C	17	4%	-5	-0.4	-19
CCOc1ccccc1N1Cc2cc(C)c(C)cc2C1	12	3%	4	10.0	-6	Arbovirus inh repeat=5

Sorted by formula weight (descending): some entries from above
SMILES	Arbovirus inh	Mtb growth	Mtb betalactam	RecA splice inh	YopH inh	others
CCOc1ccc2nc(SCC(=O)Nc3cccc(S(=O)(=O)NC4=NCCCCC4)c3)[nH]c2c1	5	4%	7	1.9	nt
COCC(C)n1c(SCC(=O)NNC(=O)c2ccc(F)cc2)nc2ccccc2c1=O (centres undefined)	5	-6%	0	-0.5	-16
COc1ccc2oc(=O)c(C(=O)Nc3ccccc3C)cc2c1	nt	nt	5	-5.0	nt

(listing goes on)
SMILES	Arbovirus inh	Mtb growth	Mtb betalactam	RecA splice inh	YopH inh	others
Cc1cccc(NC(=S)N(CCc2ccncc2)C(C)C)c1C	2	-4%	3	1.8	nt
COc1cc(C2CC(=O)c3cnc(N)nc3C2)cc(OC)c1OC (centres undefined)	3	-5%	-15	-2.0	-21
COc1ccc(CCN(C)C(=O)COc2ccc(N(C)S(=O)(=O)c3ccc(C)cc3)cc2)cc1OC	nt	nt	5	2.4	nt
N#CC(c1ccccc1)C1CCN(Cc2ccccc2)CC1 (centres undefined)	-1	0%	0	3.4	-9
COCCNC(=S)N/N=C(\C)c1cccc(C(F)(F)F)c1	2	-6%	-1	-7.0	nt
Cc1ccc(S(=O)(=O)N2Cc3ccccc3CC2C(=O)Nc2cc(C)on2)cc1 (centres undefined)	8	-3%	8	5.9	-35
COc1ccccc1C1C2=C(N=c3s/c(=C/c4cccc(OCC(=O)O)c4)c(=O)n31)c1ccccc1CC2 (centres undefined)	41*	-5%	5	nt	10
CCC(C)C1Nc2ccc(C(=O)NCCc3ccc(OC)c(OC)c3)cc2NC1=O (centres undefined)	nt	nt	4	-1.5	nt
CCO[C@H]1OC(C(=O)NCc2nc3ccccc3[nH]2)=C[C@@H](c2ccc3c(c2)OCO3)[C@@H]1CCCO	nt	-5%	-1	0.1	nt
CCn1c(=O)c(=O)[nH]c2cc(C(=O)NC3CCCC3)ccc21	4	-14%	1	1.0	nt
CC1CCCN(C(=O)CCc2ccccc2)C1 (centres undefined)	4	-4%	1	-1.6	-16
COc1ccccc1-n1c(CNC(=O)c2cccc([N+](=O)[O-])c2C)n[nH]c1=S	-1	-1%	-1	-0.2	nt
Clc1ccc(-c2nc(-c3cnccn3)no2)cc1	nt	0%	-3	-0.4	nt
Cc1ccc(S(=O)(=O)N2CCSC2)cc1C	3	-4%	0	0.0	-12
Cc1ccccc1OCCCn1cc(C(=O)C(=O)N2CCOCC2)c2ccccc21	3	1%	-1	-2.9	nt
O=C(CCN1C(=O)C2CCCCC2C1=O)Nc1ccc(OC(F)F)cc1 (centres undefined)	nt	nt	-7	-0.4	nt
CCCCc1cc(=O)oc2cc(OCC(=O)N3CCC(C(N)=O)CC3)ccc12	nt	nt	-6	-2.6	nt
Cc1c(C)c2ccc(OCC(=O)NC3CCN(Cc4ccccc4)CC3)c(C)c2oc1=O	nt	nt	-2	-2.7	nt
CCOc1ccccc1NC(=O)COC(=O)/C=C/c1ccc(OC)c(OC)c1	-3	1%	24	10	nt
CC(=O)CSc1nc(-c2ccccc2)c(-c2ccccc2)o1	nt	nt	6	4.4	nt
Cc1cccc(-n2c(C)cc(/C=N\NC(=O)c3cccs3)c2C)c1	-13	11%	-2	-0.6	-17
Brc1ccc2oc(-c3ccn[nH]3)cc2c1	nt	42%	83	1.5	nt
CC(C)(C)C(=O)NC(=S)Nc1ccccc1F	-4	-1%	34	-0.8	-33
O=C(COc1ccc(F)cc1Cl)Nc1cc(S(=O)(=O)N2CCOCC2)ccc1N1CCCCC1	nt	nt	-1	3.2	nt

The list is partial; the hit share may differ from the screen's.
